# Screening results as filed in PubChem.
# CtBP-E1A blk = inhibitors of CtBP/E1A interaction. 0.49% of 340,000 active. activity change, % (no concentration beside the values). AlphaScreen GST-E1A/His-CtBP binding, 1536-well; hits give low values; control for the full effect not named in the record; in the data active means activity change below about -65%; inconclusive means about -30% to -65%; inactive means above about -30%; further: on the % scale 0 is the no-effect control and ±100 the full control effect; compound concentration not given in the record
#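 Protein mix (5X: 125 nM each GST-E1A, His-CtBP) was incubated with pinned compound 2 h at 37 deg C in dark, in 50 mM Tris pH 8.0 buffer with 300 mM NaCl. Glutathione donor and nickel acceptor beads followed; AlphaScreen signal read after 1 h.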
# ClpP mod = qHTS Assay for Activators of ClpP. Potency, µM (highest dose often 57.5 µM), for inactives: at the highest dose activity change, negative = active. purified B. subtilis ClpP, FRET peptide cleavage, 20 min. 1.9% of 340,000 active. AID 651965, 2013. ATP-dependent Clp protease proteolytic subunit (Bacillus subtilis (strain 168)), P80244; active = well fitted falling curve with a large enough effect; inconclusive = small, poorly fitted or top-dose-only effect; inactive = no such curve, though single readings can be large or run the other way; further: potency means the concentration at half of the fitted maximal effect; the source files actives as falling curves though it sought activators and does not explain the sign; nearly all actives have a fitted effect of over 65% in size; many hits overshoot -100%
# Target sequence (P80244 whole entry, looked up): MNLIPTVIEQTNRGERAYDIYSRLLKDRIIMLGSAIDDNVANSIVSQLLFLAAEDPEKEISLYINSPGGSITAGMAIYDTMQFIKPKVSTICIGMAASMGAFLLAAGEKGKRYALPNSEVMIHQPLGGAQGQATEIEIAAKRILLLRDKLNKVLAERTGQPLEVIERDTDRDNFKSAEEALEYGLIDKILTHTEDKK
#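 FRET quenching reversal measured ClpP activation: 10 microg/mL B. subtilis ClpP at pH 8 with the FRET-FV decapeptide, read at 430 nm after 320 nm excitation. The 20-min minus 0-min signal was scaled between DMSO/no-enzyme wells and ADEP (5.8 microM final).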
# Starred values were filed as active, the others as inactive; ? = inconclusive.
SMILES,CtBP-E1A blk,ClpP mod
COC(=O)[C@@]12C[C@@H](CC(=O)NCc3cccs3)C(=O)N(CCc3ccc(OC)c(OC)c3)C1=CCC(C)(C)C2,-3.5,0.4%
CCc1nc2c(OCc3cccc(Cl)c3)cccn2c1N(C)C(=O)Nc1ccccc1OC,-12.5,-1.0%
CC(C)c1ccc(CN2CCC2(C)C(=O)Nc2ccc3c(c2)OCO3)cc1 (stereo unspecified),6.5,-0.5%
CC1(c2nnnn2Cc2ccccc2)CCC(=O)N1CC(F)(F)F (stereo unspecified),5.3,-1.4%
CCNC(=O)C1(C)CCCN(C(=O)c2ccc3sccc3c2)C1 (stereo unspecified),-3.3,0.0%
O=C(NCc1ccccc1Cl)[C@H]1CCCN1C(=O)[C@H]1CCCN1C(=O)c1cccs1,4.9,-1.0%
COCCNc1nc(Oc2cccc(NC(C)=O)c2)c2sccc2n1,-5.4,?
Cc1cccc(C)c1NC(=O)C1(C)CN(S(C)(=O)=O)CC(=O)N1Cc1ccco1 (stereo unspecified),-0.7,0.4%
Cc1ccccc1S(=O)(=O)NC(=O)C1(C)CCN1C(=O)Cc1ccc(Cl)cc1Cl (stereo unspecified),-14.5,-3.3%
NC(c1ccccc1)c1csc(Nc2ccc(C(=O)c3ccccc3)cc2)n1 (stereo unspecified),-6.5,-5.6%
CNc1cncc(-c2ccc(OC)c(OC)c2)n1,-23.3,5.1%
O=C(N[C@H]1CC[C@H](CC(=O)N2CCCCC2)O[C@@H]1CO)c1cccc(F)c1,-0.3,0.5%
CCOC(=O)C1=CCC(c2ccccc2)N(S(=O)(=O)c2ccccc2)C1 (stereo unspecified),5.0,0.7%
CC(C)C(C(=O)NCc1ccccc1)N1CCN(C(=O)C2CCCO2)CC1 (stereo unspecified),25.9,0.4%
COc1ccc(NC(=O)c2ccc3nc(C)c(N(C)C(=O)CCc4ccccc4)n3c2)cc1OC,3.6,-1.6%
C[C@@H](NC(=O)[C@H]1O[C@@H](n2cnc3c(N)ncnc32)[C@H](O)[C@@H]1O)c1cccc2ccccc12,-1.7,0.4%
CCc1nc2c(OCC3CCCCC3)cccn2c1N(C=O)Cc1ccc(OC)cc1,-10.7,-1.9%
CN(Cc1ccc(Cl)cc1)C(c1cc2ccccc2o1)c1nnnn1C(C)(C)C (stereo unspecified),6.9,-0.3%
CCCCN(C=O)c1c(CC)nc2c(OCC(=O)c3ccc(F)cc3)cccn12,-4.9,-3.0%
CCCCn1nnnc1C(c1ccccc1)N1CCCN(Cc2ccc(F)cc2)CC1 (stereo unspecified),-6.5,-3.1%
CCC(C(=O)NCc1ccccc1)n1c(CSCCOc2ccccc2)nc2ccccc21 (stereo unspecified),-1.0,0.5%
CCc1nc2ccc(C(=O)N3CCN(S(=O)(=O)CC)CC3)cn2c1N(CC)Cc1cccc(Br)c1,1.7,-4.2%
CC(C)c1ccc(NC(=O)C2Cc3c(-c4cccc(C(N)=O)c4)ccnc3O2)cc1 (stereo unspecified),-5.3,-5.0%
CCOC(=O)[C@]12CCC=C1N(CCC1=CCCCC1)C(=O)[C@H](CC(=O)NCCC(C)C)C2,3.3,0.9%
CC(N)C(=O)NC(C(=O)NC(C)C(=O)Nc1cccc2ccccc12)C(C)C (stereo unspecified),-2.4,4.4%
CCOC(=O)C1(C)CCN1C(=O)c1ccco1 (stereo unspecified),4.5,-0.2%
CC1=C(C(=O)N(C(C)C)C(C)C)CC(CC(=O)NCCCN(C)C)C(=O)N1CCCN1CCCC1=O (stereo unspecified),2.2,-0.9%
Nc1[nH]c(C(=O)c2ccccc2)c(-c2ccc(Cl)cc2)c1C(=O)NCCc1c[nH]c2ccccc12,-24.2,-17.1%
CCOc1ccc(CCN2C(=O)C(=O)N([C@@H](CC(C)C)CN3CCC[C@H]3CN3C(=O)C(=O)NC[C@@H]3Cc3ccc(O)cc3)C[C@@H]2CC(C)C)cc1,-0.2,-0.6%
O=C(CC[C@H]1O[C@@H](n2cnc3c(NC(=O)c4ccccc4)ncnc32)[C@H](O)[C@@H]1O)N[C@@H](CO)Cc1c[nH]c2ccccc12,-0.4,-1.9%

# A second format for part of the listing above.
# Results follow in this order: CtBP-E1A blk | ClpP mod
> CC1(c2nnnn2Cc2ccccc2)CCC(=O)N1CC(F)(F)F (stereo unspecified)
 : 5.3 | -1.4%
> CCNC(=O)C1(C)CCCN(C(=O)c2ccc3sccc3c2)C1 (stereo unspecified)
 : -3.3 | 0.0%
> O=C(NCc1ccccc1Cl)[C@H]1CCCN1C(=O)[C@H]1CCCN1C(=O)c1cccs1
 : 4.9 | -1.0%

# The list continues.
SMILES,CtBP-E1A blk,ClpP mod
Nc1nc2c(ncn2[C@@H]2O[C@H](CNCc3ccccc3)[C@@H](O)[C@H]2O)c(=O)[nH]1,38.4,1.0%
Cc1cccc(C)c1NC(=O)C(C1CC1)n1c(-c2ccc(C(F)(F)F)cc2)nc2ccccc21 (stereo unspecified),-1.0,4.7%
CCNC(=O)C1(C)CCN(C(=O)c2ccc3c(c2)OCO3)C1 (stereo unspecified),5.2,0.8%
CCCC[C@@H]1Cc2[nH][nH]c(=O)c2[C@H](c2ccc(C(C)C)cc2)O1,4.9,0.6%
COc1cccc(C(=O)N2CCC2(C)C(=O)O)c1 (stereo unspecified),7.2,1.4%
CC(=O)Nc1ccc(CNc2nc(NCCN(C)C)nc3cc(-c4ccccc4)sc23)cc1,-6.7,?
CCc1nc2c(OCc3cccc(Cl)c3)cccn2c1N(C)C(C)=O,-18.7,-1.9%
CC(=O)N1CCc2cc(NC(=O)C3(C)CCN3CCc3ccccc3)ccc21 (stereo unspecified),-6.9,-1.2%
CCc1nc2c(OCC(=O)C(C)(C)C)cccn2c1N(C=O)Cc1ccc(OC)cc1,-7.4,0.9%
O=c1[nH][nH]c2c1[C@H](c1ccc(F)cc1)O[C@H](CCc1ccccc1)C2,-21.2,-1.3%
CC(C)c1ccc(CC(=O)N2CCC2(C)C(=O)Nc2ccc3c(c2)OCCO3)cc1 (stereo unspecified),-10.6,-2.0%
OC(c1ccc(-c2ccccc2)cc1)c1ncc(-c2ccccc2Cl)[nH]1 (stereo unspecified),-0.9,0.2%
O=C1NC[C@H](Cc2ccc(O)cc2)N(C[C@@H]2CCCN2C[C@H](Cc2ccccc2)N2C[C@H](Cc3ccccc3)N(CCc3ccccc3)C(=O)C2=O)C1=O,-8.8,-3.0%
O=C(Nc1ccc(F)cc1)C(c1ccncc1)N1CCN(CC(=O)N2CCCC2)CC1 (stereo unspecified),-2.6,-9.8%
COc1cccc(C(c2nnnn2-c2c(C)cccc2C)N2CCN(C/C=C/c3ccccc3)CC2)c1OC (stereo unspecified),?,0.2%
Cn1c(=O)c2cc(NC(=S)NC3CCCCC3)ccc2n1Cc1cccc(C(F)(F)F)c1,-2.2,4.5%
Cc1cccc(C)c1-n1nnnc1C(c1ccnc2ccccc12)N(Cc1ccccc1)Cc1ccccc1 (stereo unspecified),23.2,1.8%
CCCCCCn1cc(CN2CC(N3CCN(Cc4ccccc4F)CC3)CS2(=O)=O)nn1 (stereo unspecified),7.7,-2.4%
COc1cc(CNc2ncnc3c2ncn3[C@H]2CN(Cc3ccco3)C[C@@H](CO)O2)cc(OC)c1OC,2.6,0.0%
OCCN1CCN(c2ncnc3c2ncn3[C@H]2CN(Cc3ccc(F)cc3)C[C@@H](CO)O2)CC1,-10.2,1.4%
CCOC(=O)[C@]12CCC=C1N(Cc1ccco1)C(=O)[C@H](CC(=O)NCC1CCCCC1)C2,7.0,-0.1%
O=C(O)c1ccccc1-c1cccc2nncn12,8.6,?
O=C1O[C@@H](c2ccccc2)C[C@@H](O)C(=O)CCc2ccccc21,6.3,5.0%
CCCc1c(-c2cccc(Br)c2)ncn1Cc1ccccc1OC,-9.5,-4.0%
CCCCc1ccc(S(=O)(=O)NC(=O)C2(C)CCN2C(=O)c2cccc(F)c2)cc1 (stereo unspecified),-5.3,-0.1%
Cc1ccccc1S(=O)(=O)NC(=O)C1(C)CCN1C(=O)C1(c2ccccc2)CC1 (stereo unspecified),2.1,-0.1%
N#Cc1cccc(NC(=O)c2cc(C3CCCCN3S(=O)(=O)c3cccc4cccnc34)on2)c1 (stereo unspecified),-2.5,-2.7%
CC(C)(C)NC(=O)C(c1cc2ccccc2o1)n1c(=O)c(-c2ccccc2)nc2ccccc21 (stereo unspecified),-9.9,?
COC(=O)C1C(=O)N(S(=O)(=O)c2ccc([N+](=O)[O-])cc2)c2ccccc21 (stereo unspecified),-5.0,-2.8%
CCCCCCCCN1C(=O)[C@H](CC(=O)NCC23CC4CC(CC(C4)C2)C3)C[C@@]2(C(=O)OC)CC(C)(C)CC=C12,-8.1,-3.7%

# Shown with values under each structure: part of the list above.
# Results follow in this order: CtBP-E1A blk | ClpP mod
Cc1cccc(C)c1-n1nnnc1C(c1ccnc2ccccc12)N(Cc1ccccc1)Cc1ccccc1 (stereo unspecified)
→ 23.2 | 1.8%
CCCCCCn1cc(CN2CC(N3CCN(Cc4ccccc4F)CC3)CS2(=O)=O)nn1 (stereo unspecified)
→ 7.7 | -2.4%
COc1cc(CNc2ncnc3c2ncn3[C@H]2CN(Cc3ccco3)C[C@@H](CO)O2)cc(OC)c1OC
→ 2.6 | 0.0%
OCCN1CCN(c2ncnc3c2ncn3[C@H]2CN(Cc3ccc(F)cc3)C[C@@H](CO)O2)CC1
→ -10.2 | 1.4%

# Record cards, from the list above. Screens in order: CtBP-E1A blk | ClpP mod
# Cc1ccccc1S(=O)(=O)NC(=O)C1(C)CCN1C(=O)C1(c2ccccc2)CC1 (stereo unspecified) in the list: 2.1 | -0.1%
# CCCC[C@@H]1Cc2[nH][nH]c(=O)c2[C@H](c2ccc(C(C)C)cc2)O1 in the list: 4.9 | 0.6%

# Next section
SMILES,CtBP-E1A blk,ClpP mod
CC(C)C[C@H]1COc2cc(N3CC[C@H](O)C3)ccc2S(=O)(=O)N1,3.4,-6.3%
CN(C)c1ccc(-c2ccnc3c2CC(C)(C(=O)Nc2cccc(N(C)C)c2)O3)cc1 (stereo unspecified),?,4.0%
CCCS(=O)(=O)NC(=O)C1(C)CCCN(C(=O)c2ccc(SC(F)(F)F)cc2)C1 (stereo unspecified),1.3,2.5%
O=C(NCCN1CCC(n2c(=O)[nH]c3ccccc32)CC1)c1ccc(C(F)(F)F)cc1C(F)(F)F,2.3,-1.0%
CCC1(C)CC(C#N)(C#N)C(=O)NC1=O (stereo unspecified),1.5,-3.1%
Cc1ccc(Cc2c(-c3ccco3)nc3c4ccccc4ccn23)cc1,?,5.5%
CCCC(=O)N1CCC1(C)C(=O)NS(=O)(=O)c1cccc(Cl)c1 (stereo unspecified),3.6,0.4%
COC(=O)c1cccc(N2C(=O)C[C@](Sc3ccc(C)cc3)(C(=O)OC)[C@H]2c2ccccc2)c1,-6.2,-5.2%
Cc1nc2c(OCc3ccc(OC(F)F)cc3)cccn2c1N(C)C(=O)CCC1CCCC1,-6.4,1.0%
CCNC(=O)c1cc2c(c(-c3cccc(-c4ccccc4F)c3)n1)[C@@H](CCO)N(C(=O)CC1CC1)C2,8.7,0.3%
OC(c1ccc2ccccc2c1)c1ncc(-c2cccc3ccccc23)[nH]1 (stereo unspecified),-11.0,4.8%
CC(=O)Nc1cccc(-c2csc(C(O)c3ccc(F)cc3)n2)c1 (stereo unspecified),-17.7,-4.6%
Cc1nnsc1C(=O)N1CCCC(C)(C(=O)NS(=O)(=O)C2CC2)C1 (stereo unspecified),6.7,0.6%
COc1ccc(C(C)=O)cc1Cn1c(C)c(C(=O)NC2CC2)sc1=O,-1.4,0.4%
CCCc1nc2ccc(C)cn2c1Cc1ccc(C)cc1,-22.6,5.2%
OCC1OC(n2cnc3ncccc32)C(O)C1O (stereo unspecified),6.3,2.0%
O=C1c2ccccc2C(c2nnnn2Cc2ccccc2)N1CCc1c[nH]c2ccccc12 (stereo unspecified),3.5,0.1%
CC1(Cc2ccc(OC(F)(F)F)cc2)C(=O)Nc2ccc(OC(F)(F)F)cc21 (stereo unspecified),5.6,3.1%
CCCNC(=O)C1(C)CCCN(Cc2cc3ccccc3o2)C1 (stereo unspecified),-8.0,-1.0%
Cc1ccc(N2CCN(C(CCc3ccccc3)C(=O)Nc3c(C)cccc3C)CC2)cc1 (stereo unspecified),-25.1,-4.6%
O=C(NCc1ccncc1)[C@@H]1CCCN1C(=O)[C@H]1CCCN1C(=O)c1cccc2ccccc12,3.1,0.7%
O=C(NCc1ccc(F)cc1)c1cc(C2CCCCN2C(=O)c2cccs2)on1 (stereo unspecified),4.5,1.3%
CN(C(=O)CN1CCN(c2cc(-c3ccc(-c4ccccc4)cc3)ncn2)CC1)c1ccccc1,-17.0,-8.4%
CCCS(=O)(=O)NC(=O)C1(C)CCN(C(=O)c2ccc(OC)cc2OC)C1 (stereo unspecified),9.8,-1.5%
COc1ccc(Cc2c(-c3ccc(Cl)cc3)nc3cc(C)c(Br)c(C)n23)c(C)c1,-9.1,-0.4%
O=C(Nc1nnc([C@H]2C[C@H](O)[C@@H](CO)O2)s1)c1cccc(OC(F)(F)F)c1,-0.6,-0.1%
CC(C)C[C@H]1CN(CCCC[C@H]2CNC(=O)C(=O)N2CC2CCCCC2)C(=O)C(=O)N1CC1CCCCC1,0.0,1.8%
CCCCn1nnnc1C1(C)CCC(=O)N1CCCN1CCOCC1 (stereo unspecified),9.8,-0.1%
COc1ccc(Cc2c(C(C)(C)C)nc3ccc(Br)cn23)c(C)c1,36.2,-10.7%
O=C(C(=Cc1ccccc1)c1ccccc1)c1ccccc1,12.0,0.3%

# Some of the compounds tested; the hit share may differ from the screen's.
